HSD17B inh = qHTS Assay for Inhibitors of HSD17B4, hydroxysteroid (17-beta) dehydrogenase 4 | 3-hydroxyacyl-CoA dehydrogenase type-2 (Homo sapiens), Q99714 | recombinant HSD17B10, NADH fluorescence kinetic; many of its hits are not listed in these tables | Potency, µM (doses to about 57.1 µM), for inactives: top-dose activity change, negative = inhibition, most hits filed as inhibitors | actives 7.6% (n = 75,000) | AID 893, 2007; active = well fitted inhibition curve with a large enough effect; inconclusive = small, poorly fitted or top-dose-only effect; inactive = no such curve, though single readings can be large or run the other way;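 note: the protocol describes HADH2 (HSD17B10) and not the HSD17B4 of the title; nearly all actives have a fitted effect of over 70% in size; most hits overshoot -100% by far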
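20 nM HADH2, pH 9.0 Tris/Tween; cpd preinc 15 min RT; start w/ 1 mM NAD+ + 90 uM b-hydroxybutyryl-CoA; kinetic fluor ex360/em450 q30s x 4 min; delta last-first.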
* hit, by the source's call; ? = inconclusive; [ ] = remark or other dose. % is set by controls: 0 for no effect and ±100 for the full control effect; potency is the fitted concentration of half-maximal effect. The list is partial (hit frequency here may not be typical).

SMILES | HSD17B inh
CN1CCN(c2nc(-c3ccc(N(C)C)cc3)nc3ccccc23)CC1 | ?
COc1ccc(OC)c(S(=O)(=O)n2nc(-c3ccccc3)cc2N)c1 | 4%
O=C(O)CCCCCNC(=O)CCn1nnc2ccccc2c1=O | 3%
CCOC(=O)c1ccccc1NC(=O)c1ccc2c(=O)n3c(nc2c1)CCCCC3 | 100%[activator]
CCC(C)C(NC(=O)c1ccccc1NC(=O)c1ccco1)C(=O)NC1CCCCC1 (stereo unspecified) | ?
COCCn1c(=S)[nH]c2cc(C(=O)NCC3CCCO3)ccc2c1=O (stereo unspecified) | 1%
COCCNC(=O)c1cn(C)c2ccc(S(=O)(=O)N(C)C3CCCCC3)cc2c1=O | -1%
O=C(Nc1cccc(Oc2c(F)c(F)c(F)c(F)c2F)c1)N1C[C@@H]2C[C@@H](C1)c1cccc(=O)n1C2 | -5%
C=CCn1c(Cc2ccc(OC)cc2)nnc1SCc1nc2ccccc2c(=O)[nH]1 | 7%
Fc1ccc(-c2nnc(-c3ccc(Cl)cc3Cl)o2)cc1 | -16%
CCc1c(C)nc(SCCOc2ccc(OC)cc2)[nH]c1=O | -4%
CN1CCN(c2ccc(NC(=O)c3ccc4c(c3)OCO4)cc2)CC1 | 6%
Cn1c(=O)c2c(nc(NCCO)n2C)n(C)c1=O | 2%
Cc1oc(-c2ccccc2F)nc1CS(=O)(=O)CC(=O)N1CCN(Cc2ccccc2)CC1 | 3%
COc1ccc(-c2nnc(SCc3cccc(C#N)c3)o2)cc1 | 0%
Cc1noc(C)c1-c1ccc2ncnc(NCc3ccccc3)c2c1 | ?
CCOC(=O)c1[nH]c(C)c(CN(CCc2ccccc2)C(=O)CCC(=O)O)c1C | 11%
O=C(NCc1ccc2c(c1)OCO2)c1cc2ncc(Br)cn2n1 | 32µM*
Cc1nc(N2CCOCC2)c2nc(-c3ccccc3)n(CCN(C)C)c2n1 | 25µM*
CCN(CC)C(=O)C1CCCN(Cc2ccccc2C(F)(F)F)C1 (stereo unspecified) | 0%
COc1ccc(Nc2nc(N3CCCC3)nc3ccccc23)c(OC)c1 | 35%[activator]
Cc1cccc(C(=O)Nc2ccc(O)cc2)c1 | -4%
Cc1nc2cc(-c3cccc(Cl)c3)nn2c(N2CCN(C(=O)c3ccco3)CC2)c1C | 14%
CCN(CC)S(=O)(=O)c1ccc(C(=O)NCC(c2cccs2)N2CCOCC2)cc1 (stereo unspecified) | -3%
COC(=O)c1cccc(C23CC4(C2)[C@H](CN(Cc2ccc(C(F)(F)F)cc2)[C@@H]4c2ccccc2)C3c2ccc(C(F)(F)F)cc2)c1 (stereo partly specified) | -5%
O=C(O)C1CC(=O)N(CCOc2ccccc2)C1 (stereo unspecified) | 2%
COC(=O)CN(c1ccc(C(C)C)cc1)S(=O)(=O)c1c(C)[nH]c(=O)[nH]c1=O | 2%
CCCn1c(SCC(=O)Nc2nnc(C(C)C)s2)nc2c1c(=O)n(C)c(=O)n2C | 2%
CC1(C)C2CCC1(CS(=O)(=O)NCc1ccc(C(=O)O)cc1)C(=O)C2 (stereo unspecified) | 11%
CCN(CC)CCCN1C(=O)C(O)=C(C(=O)c2ccc(C)o2)C1c1ccco1 (stereo unspecified) | 2%
O=C(CCc1nc2ccccc2[nH]1)Nc1ccc2c(c1)OCCO2 | 6%
O=C(Nc1ccc(SC(F)F)cc1)c1ccc2nccnc2c1 | -6%
CCOc1ccc(CCNC(=O)CN(C)S(=O)(=O)c2cccc3nsnc23)cc1OCC | -5%
CCC1CCCCN1S(=O)(=O)c1ccc2c(c1)CCN2C(=O)C1CCC1 (stereo unspecified) | -10%
CN(C)C(=O)N1CCN(C(=O)c2ccco2)CC1 | 2%
Cc1noc(C)c1CSCC(=O)OCC(=O)Nc1sccc1C#N | -15%
O=C(CS(=O)(=O)c1ccccc1)c1ccc2c(c1)OCCO2 | ?
CCCCC1CC1C(=O)Nc1ncc2c(n1)CC(C)(C)CC2=O (stereo unspecified) | 0%
Cc1ccccc1OCC(O)Cn1c(SC(C)C)nc2c1c(=O)[nH]c(=O)n2C (stereo unspecified) | ?
CCn1cc(C(=O)NCC(=O)OC)c2cc(OC)c(OC)cc2c1=O | -9%
COCCOC(=O)c1c(C)oc2ccc(O)c(CN3CCC(C)CC3)c12 | -3%
O=C1c2cccnc2C(=O)N1c1cccc(-c2nc3ccccc3o2)c1 | -9%
CC1(C)CC(=O)c2cc(C(=O)NCc3ccco3)c(=O)n(-c3ccccc3)c2C1 | 5%
O=C(CSc1nc2cc(Cl)ccc2o1)N1CCOCC1 | 6%
CCOC(=O)c1ccc(NC(=O)CSc2nnc(-c3cccs3)n2CC)cc1 | ?
CCOCCOC(=O)C1=C(C)N(C)C(=O)NC1c1cc(Cl)c(O)c(OC)c1 (stereo unspecified) | -6%
NC(=O)c1ccccc1NS(=O)(=O)Cc1ccc(Cl)cc1 | 25µM*
CCn1c(SCC(=O)NCc2ccco2)nc2c1c(=O)n(C)c(=O)n2C | -3%
O=C(Cn1ccc2ccccc2c1=O)NCCC(=O)N1CCN(C(=O)c2ccco2)CC1 | 5%
CCOc1cc(C2C(C(=O)c3ccc(C)o3)=C(O)C(=O)N2CCc2ccccc2)ccc1O (stereo unspecified) | -6%
O=C(Nc1ccc(S(=O)(=O)N2CCCCC2)cc1)c1cnccn1 | -13%
O=C(CN1C(=O)CSC1=O)N1CCc2ccccc2C1 | 8%
CCCCOC(=O)c1ccc(NS(=O)(=O)c2cc(-c3nnnn3CC)ccc2OC)cc1 | 4%
COc1cc(C(=O)N2CCN(C(=O)c3ccco3)CC2)cc(OC)c1OC | 0%
Cc1ccc(S(=O)(=O)N2CCCC(C(=O)NC3=NCCS3)C2)cc1 (stereo unspecified) | 4%
O=S(=O)(c1cccc2cccnc12)N(CCO)CCO | 7%
c1ccc(Cn2nnc3c(NCCN4CCOCC4)ncnc32)cc1 | 8%
CC1(C)C2CCC13CS(=O)(=O)N[C@@H]3C2 (stereo partly specified) | 4%
Oc1cccc(/C=N/c2c(-c3ccco3)nc3ccccn23)c1 | ?
CCOC(=O)C(C)Sc1nnc(-c2ccccc2O)n1Cc1ccccc1 (stereo unspecified) | 6%

(cont.)
SMILES | HSD17B inh
Clc1ccc(OCCn2ccnc2)c(Cl)c1 | 7%
O=c1cc(CN2CCN(CCO)CC2)c2cc3c(cc2o1)CCC3 | -15%
Cc1cc2cc(CNC(=O)c3ccc4c(c3)OCO4)ccc2[nH]1 | 5%
O=C(CC1CCS(=O)(=O)C1)NC1CCCCC1 (stereo unspecified) | 2%
COc1cccc(N(CC(=O)Nc2cccc(C(C)=O)c2)S(C)(=O)=O)c1 | 7%
CCCCOc1ccccc1NC(=O)C=C(C)C | 3%
O=C(CCC(=O)c1ccc[nH]1)c1ccc(Cl)cc1 | ?
CC(=O)N=c1sc(S(N)(=O)=O)nn1C | -1%
COc1cc(C2NC(=O)c3ccccc3O2)cc(OC)c1OC (stereo unspecified) | 25µM*
CC(C)(C)C(=O)C(CO)(Oc1ccc(Cl)cc1)n1cncn1 (stereo unspecified) | -7%
Cc1ccc(NC(=O)Cn2cc3c(n2)CCC(C)C3)cc1 (stereo unspecified) | 6%
CCOC(=O)N1CCC(N2Cc3cccc(C(=O)NCc4ccc5c(c4)OCO5)c3C2=O)CC1 | -26%
CC(C)CCCC(C)C1CCC2C3CC(=O)[C@H]4CC(O)CC[C@]4(C)C3CC[C@@]12C (stereo partly specified) | -2%
COc1ccc2c(c1)CCc1c-2n[nH]c1C(=O)O | 32µM*
CN1CCCN(Cc2ccccc2C(F)(F)F)CC1 | 5%
O=C(NCC1COc2ccccc2O1)Nc1ccccc1F (stereo unspecified) | 5%
CCOC(=O)N1CCN(C(=O)C2CCCN(c3ncnc4c3sc3cccc(F)c34)C2)CC1 (stereo unspecified) | -5%
Cc1nc(-c2ccccc2)sc1C(N)=O | 8%
Cn1cccc1Cc1nnc(SCC(=O)N2CCOCC2)n1-c1ccc(F)cc1 | 8%
CCSc1nc2c(c(=O)[nH]c(=O)n2C)n1CC(O)COc1ccccc1C (stereo unspecified) | -7%
Clc1ccc(-c2noc(CN3CCCCC3)n2)cc1 | 5%[11.4 µM]
COC(=O)CN(c1ccc(OC)c(OC)c1)S(C)(=O)=O | 3%
COc1ccc(C(c2nnnn2Cc2ccccc2)N2CCN(c3nc4ccccc4s3)CC2)cc1 (stereo unspecified) | -6%
CCOc1cccc2cc(-c3nnc(-c4ccccc4)o3)c(=O)oc12 | 3%
O=C(Nc1ccccc1C(=O)NCc1ccco1)c1ccccc1 | -7%
C=CCc1cccc2cc(C(=O)OCC)c(=O)oc12 | 32µM*
C=CCCCCCCCCCCCC(O)CC(O)COC(C)=O (stereo unspecified) | -5%
CC(=O)NC(Cc1ccccc1)C(=O)N1CCN(C(=O)c2cccs2)CC1 (stereo unspecified) | 1%
CCOc1ccc2[nH]c(=O)c(CN(CC3COCCO3)C(=O)C3CC3)cc2c1 (stereo unspecified) | 4µM*
c1ccc(CCN2CN(CCCN3CCOCC3)c3nc4ccccc4n3C2)cc1 | 4%
CCOC(=O)C1CCN(C(=O)Cc2c(F)cccc2Cl)CC1 | 12%
Cc1ccc(-c2nn3c(C)nnc3s2)cc1NC(=O)COc1ccc(Cl)cc1 | 1%
Cc1n[nH]c(=O)[nH]c1=O | 6%[25.6 µM]
CCCCCn1c(=O)c(-c2nc3ccccc3c(=O)[nH]2)c(O)c2ccccc21 | 8%
COc1ccc(N2CCN(C(=O)C3CCN(S(=O)(=O)N4CCOCC4)CC3)CC2)cc1 | 2%
O=C(O)CC(NC(=O)C(c1ccccc1)c1ccccc1)c1ccco1 (stereo unspecified) | 1%
CCc1cccc(NC(=O)CN(C)S(=O)(=O)c2cnc[nH]2)c1 | -9%
Cc1nn(CCC#N)c2nc(C(F)(F)F)[nH]c(=O)c12 | 4%
CCOC(=O)C1CCN(S(=O)(=O)c2cccc(-c3csc(C)n3)c2)CC1 | -20%
N=C(N)SCC(=O)O | 11%[11.4 µM]
CCCN(CCC)C(=O)c1c(C)[nH]c(C(=O)OCC)c1C | 4%
Cc1nc(SCc2ccc(Br)cc2)[nH]c(=O)c1C | -3%
C/C(=C(\C#N)C(=O)NC1CCCCC1)N(C)C | -3%
Cc1ccc2oc(-c3cccc(NC(=O)C4CCCO4)c3)nc2c1 (stereo unspecified) | 25µM*
Clc1nnc2ccc(-c3ccccc3)nn12 | 25µM*
Cc1ccc2[nH]c(=O)c(CN(CCO)C(=O)NCc3ccccc3)cc2c1 | ?
O=C(CC1NC(=O)NC1=O)Nc1cccc2ccccc12 (stereo unspecified) | -2%
CCc1nc(SCc2ccccn2)c2c(=O)n(C)c(=O)n(C)c2n1 | 0%
CN1CCN(C(=O)CN2C(=O)CC(C)(C)S(=O)(=O)c3ccccc32)CC1 | 4%
CCOC(=O)CCN1C(=O)[C@H]2[C@H]3[C@H](O)[C@H](O)C/C(=N/OCC(C)C)[C@@H]3CC[C@@H]2C1=O | 5%[11.4 µM]
COc1ccc(NC(=O)c2ccc(=O)oc2)cc1 | -7%
Cn1c(=O)c(=O)n(C)c2cc(S(=O)(=O)N3CCN(Cc4ccccc4)CC3)ccc21 | 6%
CC1(C)NC(=O)NC2(C)NC(=O)NC(C)(C)C12 (stereo unspecified) | -5%
CCOC(=O)N1CCN(c2c(-c3ccc(C(C)C)cc3)c(=O)c2=O)CC1 | -16%
O=C1C2CCCN2C(c2cccc(Br)c2)N1c1ccc(F)cc1 (stereo unspecified) | 0%
CC(C)Cc1nc(N2CCC(C(N)=O)CC2)c2nnn(Cc3ccccc3)c2n1 | 11%
CCC(=O)c1ccc(OC(=O)c2ccc(Br)o2)cc1 | -4%
CC(=O)c1cc(-c2ccccc2)[nH]c1N1CCCC1 | 1%

An excerpt from above in order of count of non-hydrogen atoms, falling.
SMILES | HSD17B inh
Cn1c(=O)c(=O)n(C)c2cc(S(=O)(=O)N3CCN(Cc4ccccc4)CC3)ccc21 | 6%
CC(C)Cc1nc(N2CCC(C(N)=O)CC2)c2nnn(Cc3ccccc3)c2n1 | 11%
Cc1ccc2[nH]c(=O)c(CN(CCO)C(=O)NCc3ccccc3)cc2c1 | ?
CCOC(=O)N1CCN(c2c(-c3ccc(C(C)C)cc3)c(=O)c2=O)CC1 | -16%
Cc1ccc2oc(-c3cccc(NC(=O)C4CCCO4)c3)nc2c1 (stereo unspecified) | 25µM*
O=C1C2CCCN2C(c2cccc(Br)c2)N1c1ccc(F)cc1 (stereo unspecified) | 0%
CCCN(CCC)C(=O)c1c(C)[nH]c(C(=O)OCC)c1C | 4%
CC(=O)c1cc(-c2ccccc2)[nH]c1N1CCCC1 | 1%
Cc1nc(SCc2ccc(Br)cc2)[nH]c(=O)c1C | -3%
C/C(=C(\C#N)C(=O)NC1CCCCC1)N(C)C | -3%
Clc1nnc2ccc(-c3ccccc3)nn12 | 25µM*
